Assay outcomes from PubChem BioAssay.
VACV mCherry inh = inhibitors of vaccinia virus infection (mCherry reporter signal); Vaccinia virus mCherry reporter infection, fluorescence; about a quarter of the inactives have no number; Potency, µM (series often up to 36.5 µM), for inactives: at the top dose activity change, negative = inhibition, hits mostly inhibitors; 310,000 tested, 0.63% active; AID 720579; active = well fitted inhibition curve with a large enough effect; inconclusive = small, poorly fitted or top-dose-only effect; inactive = no such curve, though single readings can be large or run the other way; tested in A549 cells; note: nearly all actives have a fitted effect of over 35% in size; inactives centre near -10
VACV Venus inh = inhibitors of vaccinia virus (Venus reporter) | Vaccinia virus Venus reporter expression, fluorescence | Potency, µM (series often up to 36.5 µM), for the others: at the highest dose activity change, negative = inhibition, hits mostly inhibitors | 330,000 tested, 0.46% active | AID 720580; active means well fitted inhibition curve with a large enough effect; inconclusive means small, poorly fitted or top-dose-only effect; inactive means no such curve, though single readings can be large or run the other way; tested in A549 cells; note: nearly all actives have a fitted effect of over 30% in size; inactives centre near -10
Numbers without * were called inactive; i = inactive; ? = inconclusive; / = not tested or not shown; & = joins results of further samples; [ ] = remark or other dose. % is set by controls: 0 for no effect and ±100 for the full control effect; potency is the fitted concentration of half-maximal effect.

#1 Cc1ccc(NC(=O)CCc2c(C)nn(-c3ccc(N4CCOCC4)nn3)c2C)cc1C
#2 NC(=O)C1=NOC(CNc2ncc(C(F)(F)F)cc2Cl)C1 (centres undefined)
#3 COc1ccc(Cn2nnnc2C(C(C)C)N2CCc3ccccc32)cc1 (centres undefined)
#4 CCOc1ccc(NC(=O)Nc2cccc(C)n2)cc1
#5 COc1cc(NC(=O)C/C(C)=N/NC(=O)Cc2ccc(Cl)cc2)c(OC)cc1Cl
#6 O=C(CCN1C(=O)S/C(=C\c2ccccc2)C1=O)N1CCCCC1

entry no. | 1 | 2 | 3 | 4 | 5 | 6
VACV mCherry inh | i | / | i | -23%&-3% | i | -15%
VACV Venus inh | -20% | -12% | -20% | -9%&5% | -4% | 1%

Of the compounds above, these contain a carbonyl joined to an NH by a bond outside any ring.
#1 Cc1ccc(NC(=O)CCc2c(C)nn(-c3ccc(N4CCOCC4)nn3)c2C)cc1C
#2 NC(=O)C1=NOC(CNc2ncc(C(F)(F)F)cc2Cl)C1 (centres undefined)
#4 CCOc1ccc(NC(=O)Nc2cccc(C)n2)cc1
#5 COc1cc(NC(=O)C/C(C)=N/NC(=O)Cc2ccc(Cl)cc2)c(OC)cc1Cl

entry no. | 1 | 2 | 4 | 5
VACV mCherry inh | i | / | -23%&-3% | i
VACV Venus inh | -20% | -12% | -9%&5% | -4%

Remaining list, next part:
#7 Cc1cc(C)c(OCC(=O)N(Cc2cccc(F)c2)Cc2ccco2)c(C)c1
#8 O=C1Nc2ccccc2-c2nnnn2C1N1CCCCC1 (centres undefined)
#9 CC1(C)Cc2ccccc2-c2nnc(-c3cccnc3)n21
#10 Cc1c(C(=O)NNC(=O)c2ccccc2O)oc2ccccc12
#11 Cc1ccc(NC(=O)c2cc3ccccc3o2)cc1Cl
#12 CC(=O)Nc1cc2c3c(cccc3c1)-c1ccccc1-2

entry no. | 7 | 8 | 9 | 10 | 11 | 12
VACV mCherry inh | -10% | -10% | i | ? | -27% | -30%
VACV Venus inh | -1% | -16% | -12% | -15% | -20% | -13%

#13 CCn1c(SCC(=O)NNC(=O)c2ccco2)nnc1-c1ccco1
#14 O=C(CSC1=Nc2ccccc2C2=NC(CCC(=O)NC3CCCCC3)C(=O)N12)Nc1cccc(C(F)(F)F)c1 (centres undefined)
#15 COc1ccccc1OCCSc1nc(N)cc(N)n1
#16 Cc1ccc(C)c(-n2c(SCC(=O)N3CCCC3)nnc2-c2ccccn2)c1
#17 O=C(NCCN1CCN(C(=O)NC2CCCCC2)CC1)NC1CCCCC1
#18 Cc1ccc(CN2CCc3nnc(C(NC(=O)c4ccoc4)C(C)C)n3CC2)cc1C (centres undefined)

entry no. | 13 | 14 | 15 | 16 | 17 | 18
VACV mCherry inh | 1% | 4% | -10% | -14% | / | -21%
VACV Venus inh | -10% | -5% | -4% | -7% | -13% | -12%

#19 O=C(Oc1ccc2ccc(=O)oc2c1)C1CCCCC1
#20 Cc1onc(-c2c(F)cccc2Cl)c1C(=O)c1ccc(F)cc1
#21 Cn1cc(S(=O)(=O)N2CCC3(CC2)OCCO3)c(=O)n(C)c1=O
#22 COc1ccc2cc3cc(C(=O)N4CCN(c5ccccc5F)CC4)oc3nc2c1
#23 CC(C)(C)C(=O)Nc1nnc(CCc2ccccc2)s1
#24 Cc1ccc(NC(=O)CCN2C(=O)c3ccccc3C2=O)c(C)c1

entry no. | 19 | 20 | 21 | 22 | 23 | 24
VACV mCherry inh | i | -3% | 0% | -7% | -27% | i
VACV Venus inh | -11% | -2% | 4% | 0% | -13% | -10%

#25 Cc1ccc(Nc2c(-c3cccs3)nc3nc(C)cc(C)n23)cc1
#26 O=C(Nc1cccc(C(=O)N2CCOCC2)c1)c1ccccc1Cl
#27 Cc1cc(C)cc(NC(=O)C2CCN(c3nnc(-n4c(C)ccc4C)s3)CC2)c1
#28 O=C(Nc1cccc(-c2cnc3ccccc3n2)c1)C1CC(=O)N(c2ccccc2)C1 (centres undefined)
#29 CN(C)CCN(Cc1ccccc1)S(=O)(=O)c1ccc(-c2cc(C(F)(F)F)on2)s1
#30 C=CCn1cc(-c2ccc(Cl)cc2)cc(C#N)c1=O

entry no. | 25 | 26 | 27 | 28 | 29 | 30
VACV mCherry inh | -16% | -11% | -8% | -6% | i | /
VACV Venus inh | -12% | -3% | -9% | -15% | -25% | -12%

#31 Cc1c(NC(=O)COc2ccc3ccc(=O)oc3c2)c(=O)n(-c2ccccc2)n1C
#32 CC(C)CCn1c(=O)c2ccccc2n2c(CN3CCCC3)nnc12
#33 O=C(NC1CCCC1)C(c1ccncc1)N(C(=O)c1csnn1)c1ccc(F)c(Cl)c1 (centres undefined)
#34 COc1cccc(N2CCN(S(=O)(=O)c3cccc4nsnc34)CC2)c1
#35 CC1(C(=O)NCCC(F)(F)F)Cc2c(-c3ccccc3)ccnc2O1 (centres undefined)
#36 COc1cccc(CNC(=O)C(=O)NCC(c2cccs2)S(=O)(=O)c2cccs2)c1 (centres undefined)

entry no. | 31 | 32 | 33 | 34 | 35 | 36
VACV mCherry inh | -1% | i | i | -11% | -29% | ?
VACV Venus inh | -3% | -6% | -11% | 0% | -21% | ?

Among those listed so far, these contain a thiophene ring, fused or not.
#25 Cc1ccc(Nc2c(-c3cccs3)nc3nc(C)cc(C)n23)cc1
#29 CN(C)CCN(Cc1ccccc1)S(=O)(=O)c1ccc(-c2cc(C(F)(F)F)on2)s1
#36 COc1cccc(CNC(=O)C(=O)NCC(c2cccs2)S(=O)(=O)c2cccs2)c1 (centres undefined)

entry no. | 25 | 29 | 36
VACV mCherry inh | -16% | i | ?
VACV Venus inh | -12% | -25% | ?

Later entries:
#37 COCCNC(=O)c1ccc(CS(=O)(=O)c2ccc(Cl)cc2)o1
#38 COc1cc(OC)c(/C=N/n2c(C)nnc2C)c(OC)c1
#39 Cc1ccc(NC(=O)CCS(=O)(=O)c2cc3c4c(c2)CCN4C(=O)CC3)c(C)c1
#40 Cc1ccc(C)c(CSCC(=O)NCc2cccs2)c1
#41 Cc1ccc(S(=O)(=O)CCC(=O)NC2CCCC2)cc1
#42 O=c1[nH]c(CSc2ncc(C(F)(F)F)cc2Cl)nc2cc(C(F)(F)F)ccc12

entry no. | 37 | 38 | 39 | 40 | 41 | 42
VACV mCherry inh | -13% | -2% | -1% | -10% | -4% | i
VACV Venus inh | -19% | -8% | -4% | -13% | 11% | -11%

#43 O=C(Nc1ccccc1)Nc1snnc1C(=O)Nc1cccc(O)c1
#44 Nc1nc(CSc2nnc(-c3cccc(F)c3)n2-c2ccccc2)nc(N2CCOCC2)n1
#45 CN(C)c1ccc(/C=C/c2ccc3ccccc3[n+]2[O-])cc1
#46 CC(=O)Nc1sc(C)c(C)c1C(=O)OCC(=O)Nc1ccc(S(N)(=O)=O)cc1
#47 COCCN(CCOC)C(=O)c1ccc(CSc2nc3ccccc3s2)cc1
#48 Cc1ccc(NC(=O)CN(C)C(=O)c2cc3ccccc3o2)cc1

entry no. | 43 | 44 | 45 | 46 | 47 | 48
VACV mCherry inh | -11% | -6% | -8% | -5% | -1% | i
VACV Venus inh | -12% | -4% | i | -9% | -17% | -2%

#49 CCOc1c(OC(C)=O)ccc(/C=C2\N=C(SCC)SC2=O)c1[N+](=O)[O-]
#50 Cc1cc(C(=O)CN2C(=O)C(=O)N(Cc3ccccc3)C2=O)c(C)n1CC1COc2ccccc2O1 (centres undefined)
#51 COc1cc(C(=O)Nc2ccc3c(c2)OCO3)ccc1OCc1c(C)noc1C
#52 Cc1c([N+](=O)[O-])cc(S(=O)(=O)Nc2ccc(-c3ccc(N4CCCC4)nn3)cc2)cc1[N+](=O)[O-]
#53 C/C(=N\N=C1\NC(=O)C(CC(=O)NCc2ccccc2)S1)C(C)C (centres undefined)
#54 COC(=O)C1(C(C[N+](=O)[O-])c2ccco2)C(=O)NCC1c1ccccc1 (centres undefined)

entry no. | 49 | 50 | 51 | 52 | 53 | 54
VACV mCherry inh | -23% | ? | -22% | -3% | -6% | -14%[7.34 µM]
VACV Venus inh | -11% | -8% | -18% | -28% | -14% | 2%[7.34 µM]

#55 O=C(c1cc(-c2ccccc2O)on1)N1CCOCC1
#56 COc1cccc2c1Oc1ncccc1N(c1ccc(C(=O)NCc3cccc(C)c3)s1)C2
#57 Cn1cc(C(=O)NCCc2ccc(Cl)cc2)c(=O)c2cc(S(=O)(=O)N3CCOCC3)ccc21
#58 CCOP(=O)(OCC)c1cccc(P(=O)(c2ccccc2)c2ccccc2)c1O
#59 O=C1c2ccccc2CC1Sc1nnc(-c2ccccn2)o1 (centres undefined)
#60 COC(=O)C(Cc1ccc(O)cc1)NC(=O)CCc1ccco1 (centres undefined)

entry no. | 55 | 56 | 57 | 58 | 59 | 60
VACV mCherry inh | -5% | 7% | -8% | i | ? | i
VACV Venus inh | -5% | -9% | 8% | -7% | -29% | -15%

#61 CCN(C(=O)COC(=O)c1ccccc1SCC(=O)N1CCCC1)C1CCS(=O)(=O)C1 (centres undefined)
#62 CCOCCCn1c(SCC(=O)NCc2ccc3c(c2)OCO3)nc2ccccc2c1=O
#63 COc1ccc(C(CNC(=O)CCNC(=O)c2ccccc2OC)N2CCCC2)cc1 (centres undefined)
#64 CN(Cc1nc2ccccc2c(=O)[nH]1)C(=O)C1CC(=O)N(c2cccc3ccccc23)C1 (centres undefined)
#65 COc1cccc(NC(=O)CSC2=Nc3ccccc3C3=NC(CC(=O)NCc4cccs4)C(=O)N23)c1 (centres undefined)
#66 O=C(CC1C(=O)NCCN1Cc1cccc(Oc2ccccc2)c1)NCCc1ccccn1 (centres undefined)

entry no. | 61 | 62 | 63 | 64 | 65 | 66
VACV mCherry inh | ? | -15% | -1% | 0% | -23% | -12%
VACV Venus inh | -27% | -13% | -14% | 12% | -21% | -26%

#67 COc1ccc(NS(=O)(=O)c2c(F)cccc2F)cc1S(=O)(=O)N1CCOCC1
#68 Clc1ccc2c(c1)C(N1CCNCC1)Cc1ccccc1S2 (centres undefined)
#69 CSc1ccc(CNC(=O)C2(C)CCCN2CC(C)C)cc1 (centres undefined)
#70 Cc1nc2cc(OC3(C)CCN(Cc4ccc(OC(F)(F)F)cc4)C3)ccc2s1 (centres undefined)
#71 COc1ccc(OC)c(C(=O)N2CCC(C(=O)c3ccc(F)cc3)CC2)c1
#72 CCOC(=O)CCCCCC(=O)Nc1ccc2c(c1)C(=O)N([C@H](C)CO)C[C@H](C)[C@@H](CN(C)C(=O)Nc1ccc(OC)cc1)O2

entry no. | 67 | 68 | 69 | 70 | 71 | 72
VACV mCherry inh | -12% | ? | 3% | ? | -10% | i
VACV Venus inh | 2% | ? | 1% | -5% | -13% | -12%

#73 Cc1cc(=O)oc(C)c1C(=O)OC(C(=O)c1ccccc1)c1ccccc1 (centres undefined)
#74 Cc1cc(C)nc(N2CCC(C(=O)Nc3ccc4c(c3)OCCO4)CC2)n1
#75 CC(C)OCCCNC(=O)c1cc(Sc2ccc(F)cc2)nc2ccccc12
#76 C[C@@H](CN1CCC[C@H]1CN1C(N)=NC[C@@H]1Cc1ccccc1)N1C[C@@H](Cc2ccccc2)N(CCCC2CCCC2)C1=N
#77 COc1ccc(C(=O)Nc2ccccc2-c2nc3ccccc3s2)c(OC)c1
#78 COc1ccc(NCc2cc3ccc(OC)cc3n(CC(=O)Nc3cccc(OC)c3)c2=O)cc1

entry no. | 73 | 74 | 75 | 76 | 77 | 78
VACV mCherry inh | -8% | i | -13% | i | -17% | 3%
VACV Venus inh | -7% | -7% | -10% | 3% | -20% | -3%

#79 Cc1cc(F)ccc1NC(=O)CCn1nc(C)c(S(=O)(=O)N2CCCCC2)c1C
#80 CC(=O)N1CCC(C(=O)NC2CC(C)(C)Cc3c2cnn3-c2ccc(F)cc2)CC1 (centres undefined)
#81 N#CC(C(=O)NCCc1ccccc1)c1nc2ccccc2nc1N1CCOCC1 (centres undefined)
#82 COc1cccc2cc(C(=O)NCCN3CCOCC3)c(=O)oc12
#83 Cc1ncc(-c2ccc(F)cc2)c(C2CCCN(Cc3cccc(O)c3)C2)n1 (centres undefined)
#84 NC(N)=NS(=O)(=O)c1ccc(N=C2C(=O)Nc3ccccc32)cc1

entry no. | 79 | 80 | 81 | 82 | 83 | 84
VACV mCherry inh | -12% | -7% | / | i | i | i
VACV Venus inh | -10% | -4% | -6% | -13% | -14% | -4%

#85 CC(=N\NC(=O)c1ccc([N+](=O)[O-])cc1)/C(=N/O)C(=O)Nc1ccccc1
#86 COCCCn1c(SCC(=O)Nc2ccccc2F)nnc1-c1ccoc1C
#87 O=P(Oc1ccccc1)(Oc1ccccc1)N1CCN(c2ccc(F)cc2)CC1
#88 COc1cccc(NC(=O)c2cnc(SC)nc2)c1
#89 Cc1ccc(CNC(=O)COc2ccc(S(=O)(=O)N3CCCC3)cc2)cc1
#90 COC(=O)/C=C1/N/C(=N\c2nc(C)cc(C)n2)N(c2ccc(C)c(C)c2)C1=O
#91 O=C(O)c1cccc2c1C(=O)c1ccc(Cl)cc1S2(=O)=O
#92 Cc1ccc2oc(=O)c3cnn(CC(=O)N4CCc5ccccc5C4)c3c2c1
#93 NNc1nc2c(F)cccc2s1

entry no. | 85 | 86 | 87 | 88 | 89 | 90 | 91 | 92 | 93
VACV mCherry inh | i | 5% | -22% | -7% | ? | / | -5% | -10% | i
VACV Venus inh | -13% | -8% | -17% | -10% | -9% | -19% | -6% | -1% | -1%
